Source: PubChem BioAssay
BJeLR lethal: BJeLR cell viability loss; inhibition, % (concentration not given with the values); 300,000 compounds, 0.17% hits; BJeLR (HRASV12) viability, CellTiter-Glo ATP luminescence, 48 h; reference of the scale not given here;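 active = replicate mean above 50%; inconclusive = above 50% but judged a plate artefact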;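 note: 50 nL library stock added to about 25 µL; numbers are from one replicate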
PrP 5UTR inh: inhibition of PrP 5' UTR reporter expression. cell-based PrP 5' UTR mRNA reporter, plate reader. inhibition, % (test concentration not listed). 340,000 compounds, 0.35% hits. AID 488862;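 active = every replicate at 50% or more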;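 note: 0 = median of the neutral control wells; tested in H4 reporter cells; numbers are from one replicate; inactives centre near -14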
Autofluor counter: flagged as autofluorescent in microsphere protease counterscreen | compound autofluorescence counterscreen, microsphere flow cytometry; hits give high values | fluorescence intensity (concentration not given with the values) | 360,000 compounds, 3.1% hits;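 active = at least 3 SD above the mean of all compounds, about 16000 in these data; inconclusive = too few beads counted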;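 note: 100 nL of 1 mM stock went into each well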
Sa RN4220 lethal: kills Staphylococcus aureus RN4220 | S. aureus RN4220 growth, OD600, 16 h | inhibition, % (no concentration beside the values) | 330,000 compounds, 0.33% hits | AID 1259311;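 active = z-score of -3 or lower and OD600 up to 0.18 on both plates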;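 note: plate controls were untreated cells for no effect and reference antibiotic for full effect; stock transfer was 100 nL into about 80 µL; one replicate is shown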
Mtb hypoxia rep: inhibitors of hypoxia-regulated fluorescent reporter in Mycobacterium tuberculosis; M. tuberculosis hypoxia-regulated fluorescent reporter, fluorescence; fluorescence inhibition, % (concentration not given with the values); 300,000 compounds, 0.1% hits; AID 1159583;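 active = 35 to 45% if threefold the growth effect, above 45% if 1.5-fold the growth effect; inactive = the rest, general growth blockers included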;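 note: wells of about 50 µL received 100 nL stock; 0% = vehicle wells and 100% = reference inhibitor wells; whole bacteria with a GFP reporter of the hypoxia response; strong numbers were not always called active; many hits fall short of the cut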
ugtP null kill: kills S. aureus RN4220 lacking UgtP | growth inhibition, % (concentration not given with the values) | AID 1259309 | 330,000 compounds, 0.54% hits | S. aureus RN4220 ugtP deletion, OD600 growth, 16 h; some inactives read as strong as hits;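 active = z-score under -3 and OD600 up to 0.15 on both plates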;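 note: plate controls were untreated wells for no effect and antibiotic for full effect; wells of about 80 µL received 100 nL stock; the first replicate is given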
Mtb hypoxia rep growth: further read-out of Mtb hypoxia rep, marked with its call; growth inhibition, %; measured here: M. tuberculosis growth (absorbance);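 0% = vehicle and 100% = reference antibiotic; read after six days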
Starred values were filed as active, the others as inactive; ? = inconclusive; · = not tested or not shown.

SMILES	BJeLR lethal	PrP 5UTR inh	Autofluor counter	Sa RN4220 lethal	Mtb hypoxia rep	Mtb hypoxia rep growth	ugtP null kill
COc1cc(NC(=O)COC(=O)CNC(=O)c2ccc(C)cc2)c(C)cc1[N+](=O)[O-]	-4	-9	1953	0.5	-3	-19	1
O=C(NCC1CCN(Cc2cccc(Cl)c2)CC1)Nc1ccccc1Cl	0	-3	3531	0.1	6	8	13
O=C(c1c(Cl)cccc1Cl)N1CCN(c2ccccn2)CC1	-14	0	8172	4.3	-5	1	11
Cc1ccc(S(=O)(=O)/N=C/N(C)C)cc1	-6	-26	10572	·	·	·	·
CC1=CC(C)(C)NC(=S)N1c1ccc(C)cc1C	-4	-8	3957	8.7	14	7	10
O=C(O)CSCC(=O)NCc1csc2ccc(Cl)cc12	-10	-2	6274	5.3	17	5	11
O=C(CN1C(=O)NC2(CCCc3ccccc32)C1=O)N1CCN(C(=O)c2ccco2)CC1 (stereo unspecified)	-4	-12	3264	2.7	12	6	-3
O=C(N/N=C/c1cccc(Br)c1)C1CC(=O)N(c2ccccc2)C1 (stereo unspecified)	8	-33	4175	·	·	·	·
OCC1CCCN(Cc2ccc(-c3ccccc3)cc2)C1 (stereo unspecified)	-13	-16	7721	0.2	5	1	5
COc1cc(S(=O)(=O)NC2CCCC2)ccc1-n1cnnn1	-11	-3	4475	6.8	-1	1	3
CCOC(=O)C1(Cc2ccccc2)CCN(Cc2cccc3c2OCO3)CC1	2	-27	3189	-0.5	6	6	8
CN(c1ccccc1)S(=O)(=O)c1ccc(Cl)c(C(=O)Nc2ccc(N3CCOCC3)cc2)c1	6	-2	3097	8.9	-14	3	1
COc1ccc(-c2[nH]ncc2CNCCc2ncccc2C)cc1F	10	-29	4686	-3.3	-3	1	-5
CCCCc1nnc(NC(=O)CSc2nc(N)cc(=O)[nH]2)s1	4	-16	4563	3.6	9	3	5
CC1(c2ccc3noc(-c4ccc(Cl)cc4)c3c2)OCCO1	14	-14	3438	0.9	·	·	13
Cc1cc(=O)oc2cc(NC(=O)c3cccc(S(=O)(=O)N(C)C)c3)ccc12	-5	-68	5327	6.2	2	5	8
Cc1cc2ccc(C)c(C)c2nc1SCC#N	-12	-8	3556	0.0	2	-3	10
COC(=O)c1ccc(C=Cc2c(-c3ccsc3)sc3ccccc23)cc1	·	·	·	-9.7	1	1	22
CC(Nc1cc(N2CCN(C(=O)C(C)(C)C)CC2)ccc1[N+](=O)[O-])c1ccccc1 (stereo unspecified)	-3	0	23558*	-2.2	4	-3	-18
O=C(COC(=O)C1CCC1)NCCc1ccc(Cl)cc1Cl	-3	-11	5670	-1.6	0	8	-2

Sorted by formula weight (lowest first): part of the list above.
SMILES	BJeLR lethal	PrP 5UTR inh	Autofluor counter	Sa RN4220 lethal	Mtb hypoxia rep	Mtb hypoxia rep growth	ugtP null kill
Cc1ccc(S(=O)(=O)/N=C/N(C)C)cc1	-6	-26	10572	·	·	·	·
O=C(CN1C(=O)NC2(CCCc3ccccc32)C1=O)N1CCN(C(=O)c2ccco2)CC1 (stereo unspecified)	-4	-12	3264	2.7	12	6	-3
CN(c1ccccc1)S(=O)(=O)c1ccc(Cl)c(C(=O)Nc2ccc(N3CCOCC3)cc2)c1	6	-2	3097	8.9	-14	3	1

(next part)
SMILES	BJeLR lethal	PrP 5UTR inh	Autofluor counter	Sa RN4220 lethal	Mtb hypoxia rep	Mtb hypoxia rep growth	ugtP null kill
COCC(C)n1c(C)cc(C(=O)CSc2cc(C)c3ccccc3n2)c1C (stereo unspecified)	-5	-11	2113	2.4	7	-2	-17
O=C(Nc1ccccc1N1CCOCC1)c1cccc(S(=O)(=O)N2CCOCC2)c1	·	-13	3457	3.0	10	-3	4
CN(Cc1ccccc1)C(=O)c1ccc(NC(=O)Cc2ccc(NC(=O)C3CCN(C(=O)C4CCCCC4)CC3)cc2)cc1	·	-7	3300	1.5	-9	-2	1
O=C(Nc1cccc(F)c1)C1CCCN1S(=O)(=O)c1cccc2cccnc12 (stereo unspecified)	-3	-11	5537	1.2	·	·	5
O=C(NCCc1csc(-c2ccccc2)n1)c1ccccc1F	7	-26	3715	3.3	8	-2	6
Cc1ccc(CN(Cc2ccccc2)C(=S)Nc2ccccc2C)o1	-14	-15	4528	2.5	-10	-2	-1
O=C(OCN1C(=O)c2ccccc2C1=O)c1ccccc1	-4	13	7534	4.4	0	-5	2
CC1(C)S[C@@H]2[C@H](NC(=O)COc3ccccc3)C(=O)N2C1C(=O)OCC1CCCCC1 (stereo partly specified)	-1	1	4061	99*	1	10	100*
COc1cc(C(=O)Nc2ccc(N(C)C)cc2)cc(OC)c1OC	11	-62	11406	-3.7	1	17	0
CCc1ccc(C(=O)Nc2ccc(S(=O)(=O)Nc3nc(C)cc(C)n3)cc2)o1	11	6	3452	3.7	·	·	4
COc1ccc(S(=O)(=O)N2CCOCC2)cc1NC(=O)c1ccc2c(c1)OCO2	·	-13	·	6.5	1	3	6
COCc1c(C(=O)N/N=C/c2ccc(C)o2)nnn1-c1nonc1N	5	-15	5252	·	·	·	·
Cc1cc(NC(=O)CCC(=O)N(CC(=O)NC2CCCC2)Cc2ccco2)no1	2	1	4701	-2.6	-2	8	0
CCOC(=O)c1c(N=Cc2cc(C)ccc2O)sc2c1CCN(C)C2	·	·	·	2.0	14	3	9
NC(=O)C1CCN(C(=O)CC2(CC(=O)O)CCCC2)CC1	-8	-4	4540	1.5	7	-10	2
O=C(OCCCN=C1NS(=O)(=O)c2ccccc21)c1ccc(F)cc1	-5	-22	11704	2.6	5	4	16
CC(=O)NNc1cc(C)nc(NS(=O)(=O)c2ccc(C)cc2)n1	-1	-18	·	3.6	8	-3	10
Cc1ccc(S(=O)(=O)N2CCN(CC(O)COc3ccccc3)CC2)cc1 (stereo unspecified)	-10	-4	6203	2.0	11	0	1
CN(CC(=O)N1CCc2ccccc2C1)S(=O)(=O)c1ccc2c(c1)c(=O)n(C)c(=O)n2C	·	6	6188	3.0	9	7	11
COc1ccc(OC)c(N2C(=O)C(Cl)=C(N3CCOCC3)C2=O)c1	-10	-54	11439	-0.9	5	2	-3
COc1cc(C=NNC(=O)c2cccc([N+](=O)[O-])c2)ccc1OC(=O)c1ccco1	·	·	·	7.1	2	3	14
Cc1ncc([N+](=O)[O-])n1CC(=O)NCc1ccccc1	·	-7	11579	1.6	-6	0	5
O=S(=O)(NCCCNS(=O)(=O)c1c(F)cccc1F)c1ccc2c(c1)OCCO2	·	2	3720	4.4	7	13	3
CCOC(=O)C1=C(C)N(CC(C)C)C(=O)/C1=C\c1cccs1	-7	-1	3756	5.2	6	8	-5
O=C1CCCN1c1cc(Cl)ccc1Cl	-9	-16	11110	1.7	7	12	-5
OCCn1cnc2c(SCc3ccccc3)ncnc21	·	-21	2860	4.3	17	9	4
Cc1noc(C)c1C(=O)NCc1ccccc1F	-1	-6	3568	9.2	-13	-5	6
COc1ccc(NC(=O)/C(C#N)=C/c2ccc[nH]2)c(OC)c1	-3	-25	6292	2.3	-6	-5	-5
CCN(CC)C(=O)c1ccc2c(c1)N(Cc1ccccc1)C(=O)CS2=O (stereo unspecified)	-6	-32	5872	2.5	·	·	8
O=C(CCc1ccc(S(=O)(=O)NC2CCCCC2)cc1)NCc1ccc(Cl)cc1	-4	-11	2743	16	·	·	-8
O=C(Cc1ccc(Br)cc1)OCC(=O)c1ccc2c(c1)OCCO2	-2	-17	2786	-4.8	·	·	-4
COCCN(C(=O)COC(=O)CCC1CCCC1)c1c(N)n(Cc2ccccc2)c(=O)[nH]c1=O	-6	-16	?	4.6	7	1	3
CCC(=O)Oc1ccc(C(=O)Nc2ccc3c(c2)C(=O)N(C2CCCCC2)C3=O)cc1	-1	-31	19149*	-4.1	5	23	7
Cc1oc(-c2ccccc2F)nc1CS(=O)CC(=O)NCc1ccc(F)cc1 (stereo unspecified)	5	-11	5900	6.0	-1	1	-4
O=C1COc2ccc(C(=O)COC(=O)c3ccccc3F)cc2N1	·	-10	4629	3.4	4	2	6
c1ccc(-c2nc(Sc3ncnc4c3cnn4-c3ccccc3)n[nH]2)cc1	-4	·	·	6.6	-89	-12	30
Cc1ccc(Nc2c(-c3ccc(C)o3)nc3cnccn23)cc1	0	-30	6061	·	·	·	·
CS(=O)(=O)c1ccc(Cl)c(NC(=O)c2cc(=O)[nH]c3ccc(S(=O)(=O)N4CCOCC4)cc23)c1	1	-20	?	2.1	-4	7	0
COC(=O)C1CCN(C(=O)NC2CC(=O)N(c3ccc4c(c3)OCCO4)C2)CC1 (stereo unspecified)	16	-16	?	4.6	6	2	16
Cc1cccc(OCC(=O)ON=C(N)c2ccccn2)c1	·	·	·	5.6	5	5	4
CSCC[C@H](NC(=O)[C@@H]1Cc2ccccc2CN1)C(=O)NCC1CCC(C(=O)O)CC1 (stereo partly specified)	·	·	·	0.8	-1	-6	6
CCOc1ccc(NC(=O)CCSc2ccc(C)cc2)cc1	5	-11	2486	·	·	·	·
CN(CC(=O)Nc1ccc(S(N)(=O)=O)cc1)C1CCCCC1	-9	-1	5641	2.8	-3	5	1
COc1ccc(Cc2noc(CN3CCN(Cc4cccc(Cl)c4)CC3)n2)cc1OC	3	-27	4601	5.9	4	6	2
CC(C)=CC(=O)OCc1cc([N+](=O)[O-])cc2c1OCOC2	-3	-42	4486	9.6	-9	-10	2
COCCn1c(SCC(=O)NCc2cccs2)nnc1-c1ccc(OC)cc1	-4	-10	9387	5.1	-4	6	8
O=c1c2c3c(sc2ncn1N=Cc1ccncc1)CCCC3	·	·	·	10	1	6	4
COC(=O)C1=C(CN2CCN(C)CC2)NC(=O)NC1c1cc(C)ccc1C (stereo unspecified)	-5	-25	2688	-1.3	·	·	3
CN(CC(=O)Nc1ccccc1Cl)C(=O)CSc1nc2ccccc2s1	5	-2	2167	0.8	-14	-24	-1
CC(C)(C(N)=O)N1CCN(c2ncc(C(F)(F)F)cc2Cl)CC1	3	-9	3490	4.5	8	5	3
Later entries
SMILES	BJeLR lethal	PrP 5UTR inh	Autofluor counter	Sa RN4220 lethal	Mtb hypoxia rep	Mtb hypoxia rep growth	ugtP null kill
CC(=O)N1CCN(C(=O)c2oc3ccccc3c2C)CC1	0	-29	5781	3.1	11	-8	10
O=C1COc2ccc(C(=O)CCl)cc2N1	0	-20	3189	·	·	·	·
O=C(CNC(=O)c1ccccc1Br)NN=Cc1ccc(O)cc1	·	·	·	0.8	2	-2	10
N#Cc1nc(COc2ccccc2Cl)oc1N1CCCC1	-6	1	4523	2.6	5	9	-6
O=C(Nc1ccc(Cl)cc1Cl)NC1CCCC1	2	0	2382	2.1	-3	-3	4
Cc1cc(C)c2c(n1)nn1c(N3CCN(c4ccccc4)CC3)cc(C)nc21	-4	-14	?	-1.4	-7	9	-7
CCOC(=O)CN1C(=O)CSc2ccc(S(=O)(=O)N3CCCC3)cc21	-5	9	4461	2.5	8	9	10
CC(=O)c1ccc(OC(=O)c2cccs2)cc1	1	-21	24802*	15	0	3	25
O=C(CN1C(=O)NC2(CCCC2)C1=O)Nc1cc(Cl)ccc1N1CCOCC1	3	-25	?	0.1	-11	5	0
Cc1cc2c(cc1S(=O)(=O)Nc1cccc(F)c1C)NC(=O)CO2	8	-10	4496	5.8	15	1	-12
CC1(C)CC(=O)c2sc(NS(=O)(=O)c3ccc(Br)cc3)nc2C1	·	37	6971	6.0	5	2	3
NC(=S)N=Nc1c(O)n(Cc2ccccc2)c2ccccc12	-1	-36	8740	1.9	11	0	5
CC(=O)Nc1ccc(SCC(=O)NC(=O)c2ccccc2Br)cc1	·	1	·	7.2	2	-4	13
COc1ccc(C(C#N)CCC2OCCO2)cc1OC (stereo unspecified)	·	-14	3883	1.7	12	15	1
N#Cc1cc(C#N)c(SCC(=O)N2CC(=O)Nc3ccccc32)nc1N	·	-32	?	4.8	-8	-4	4
O=C(CCCn1c(=O)c2sccc2n(CC(=O)NCC2CCCO2)c1=O)NCc1ccco1 (stereo unspecified)	-6	-15	3509	3.0	0	0	12
O=C(Nc1nc2ccc(F)cc2s1)c1cccc(S(=O)(=O)N2CCc3ccccc32)c1	9	-30	7412	5.3	0	10	-18
Cc1ccccc1NC(=O)Nc1ccccn1	2	-9	3646	7.0	10	12	10
COc1ccc(N2CCN(C(=O)CSc3ncnc4c3cnn4-c3ccccc3C)CC2)cc1	8	-12	3119	-7.0	5	-23	-2
